Bioassay records from PubChem.
NPYLR7 ag: activates Aedes aegypti NPYLR7 receptor; HEK293T NPYLR7/Galpha15, GCaMP6s calcium fluorescence; activation, % at 10 µM; hit rate 0.15% among 270,000; in the data active = activation above about 40%;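 note: 0% = vehicle and 100% = reference agonist at the receptor; some compounds past the cut are filed as inactive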
NPYLR7 ag max-min: also measured in NPYLR7 ag; calls as there; activation, %; measured here: Max-Min RFU normalised activation; some inactives read as strong as hits;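 span of the calcium signal over five minutes; 0% = vehicle and 100% = native peptide agonist; compound fluorescence can raise it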
* hit, by the source's call.

SMILES | NPYLR7 ag | NPYLR7 ag max-min
c1coc(-c2nccn2-c2ccc(-c3ccn[nH]3)cc2)c1 | 5 | 3
O=C([C@@H]1C[C@@H](O)CN1)N1CCC(Cc2nncn2-c2ccccc2)CC1 | -6 | -8
CCNC(=O)c1ccc(-c2cc(NCCO)nc3[nH]ccc23)cc1 | 1 | 0
O=C(c1ccc([N+](=O)[O-])cc1)N1CCSC1c1ccccc1OCc1ccccc1 (stereo not drawn) | -5 | 1
CCC(CO)N(Cc1ccsc1)C(=O)c1ccsc1 (stereo not drawn) | 12 | 3
CSc1ccc(C(=O)CCC(=O)NCCc2cccnc2)cc1 | -5 | -11
O=C(CCCn1nnnc1CN1CCc2ccccc2C1)N1C[C@H]2CC[C@H]1C2 | 21 | 13
CN(C)c1cc(Cl)nc(SCc2cccc(C(=O)O)c2)n1 | 14 | 20
O=C(O)c1ccccc1C1CCN(C(=O)CCn2cnc3ccccc32)C1 (stereo not drawn) | 9 | -3
CN(Cc1cccc(C(=O)Nc2nn(C)c3ccccc23)c1)Cc1cnccn1 | 7 | 5
N#Cc1cccc(NC(=O)N2CCc3ccccc3C2c2ccc(F)cc2)c1 (stereo not drawn) | -2 | 6
CCCn1nnnc1CSc1nnc(-c2cccs2)n1C1CC1 | 0 | 12
Cc1ccc(-n2nc(C(=O)NCc3ccc(F)cc3)c(=O)n(Cc3ccc(C(F)(F)F)cc3)c2=O)cc1Cl | -2 | 3
CN(C1CCCCC1)S(=O)(=O)c1ccccc1NC(=O)Cn1c(=O)oc2ccccc21 | 0 | -1
Cc1cc(C(=O)N2CCCC(C(=O)c3ccc(Oc4ccccc4)cc3)C2)nn1C (stereo not drawn) | 7 | 4
CCOC(=O)COc1ccc2c(=O)cc(-c3ccccc3)oc2c1 | -10 | -9
O=C(O)C1CC(=O)N(c2ccc3[nH]ccc3c2)C1 (stereo not drawn) | 4 | 2
NC(=O)NC(=O)COC(=O)CC12CC3CC(CC(C3)C1)C2 | 3 | 6
O=C(NCCC(=O)N1CCN(CC2CC2)CC1)c1cc(F)ccc1Br | 17 | 13
O=S(=O)(Cc1ccc(Cl)cc1)c1ccc(NCCC2=CCCCC2)nn1 | 1 | -5
O=C(NC1CCN(c2ccccc2C(=O)NCc2ccc(F)cc2)CC1)c1ccc([N+](=O)[O-])cc1 | 1 | 16
O=C(NCc1ccco1)N1CCN(CC(F)(F)C(F)F)CC1 | 0 | -1
O=c1c(O)c(-c2ccccc2)oc2ccc3occc3c12 | -5 | -10
CC1CC(C)CN(c2nc3c(c(=O)[nH]c(=O)n3C)n2CCSc2nc3ccccc3o2)C1 (stereo not drawn) | 2 | 10
O=C(c1ccc2nc(-c3ccccc3)c(-c3ccccc3)nc2c1)N1CCC(n2c(=O)[nH]c3ccccc32)CC1 | -7 | -11

More results.
SMILES | NPYLR7 ag | NPYLR7 ag max-min
CCOc1c(CC)cnc2c1c(=O)n(CC#N)c(=O)n2C | -4 | -7
CCCC[n+]1cccc2ccccc21 | -1 | -9
CCN(CC(O)c1ccc(C)cc1)C(=O)c1cnn(Cc2ccccc2)c1 (stereo not drawn) | 8 | 5
Cc1cc(-c2nc(C)sc2CC(=O)NC(c2ccccc2)C2CC2)c(C)s1 (stereo not drawn) | 11 | 11
COCCN=c1scc(-c2cc(OC)ccc2OC)n1N=Cc1ccc([N+](=O)[O-])o1 | 18 | 7
CCN(CC)C(=O)Oc1ccc2c(ccn2Cc2c(Cl)ccc(C)c2F)c1-c1ccc(F)c(Cl)c1 | 11 | -3
COc1cccc(CN(C)C(=O)Nc2cccnc2N2CCCC2)c1 | -5 | -6
CCC1c2ccsc2CCN1C(=O)CNC(=O)c1ccc(C)c(C)c1 (stereo not drawn) | 7 | 5
CC(C)Cn1c(CN2CCN(c3ccccc3)C(=O)C2)cnc1S(C)(=O)=O | 11 | 7
Cn1ncc(NCc2ccc(-c3ccc4c(c3)CCO4)cc2)c(Cl)c1=O | 6 | 1
O=C(c1ccc2c(c1)OCO2)N1CCSC1c1cccc(Oc2ccccc2)c1 (stereo not drawn) | -4 | 0
Cc1cc(C(=O)N2CCCCC2c2nc3ccc(F)cc3[nH]2)nn1C (stereo not drawn) | 34 | 21
Cc1cc(OC(C)c2ccccc2)ccc1N (stereo not drawn) | 1 | -2
CCOc1ccc(NC(=Nc2nc(C)cc(C)n2)NC(=O)c2ccccc2)cc1 | -5 | -10
CCOCCCn1c(SCC(=O)c2ccccc2)nc2cc(S(=O)(=O)N3CCOCC3)ccc21 | -2 | -2
O=C1CN(Cc2ccc(-c3nc(CCn4cccn4)cc(=O)[nH]3)cc2)CCCN1 | -4 | -9
Cc1ccc(-c2cn(CC3CCN(c4cc(C)nc(N)n4)CC3)nn2)cc1 | -4 | -6
OC(COCc1ccco1)CN(Cc1ccc(F)cc1)Cc1ccc2c(c1)OCO2 (stereo not drawn) | 28 | 35
Cc1ccc(C)c(CSc2nc(=O)n(Cc3ccncc3)c3c2CCC3)c1 | 0 | -2
CN(Cc1ccccc1)c1nc2c(c(=O)n(C)c(=O)n2C)n1CCSc1nc2ccccc2o1 | 11 | 5
CC1ON=C(c2cccs2)N(C)C1=O (stereo not drawn) | -4 | -4
COCCNC(=O)c1cc(-c2ccccc2)nc2c1c(C)nn2C1CCS(=O)(=O)C1 (stereo not drawn) | 4 | 11
COCCn1c(N)c(C(=O)N2CCCC2)sc1=S | 3 | 2
C=CSc1cccc2ncccc12 | 5 | 3
C=CCOC(CN1CCN(C(=O)c2ccoc2)CC1)c1cccc(N2CCCC2)c1 (stereo not drawn) | -4 | -12

(more compounds)
SMILES | NPYLR7 ag | NPYLR7 ag max-min
COc1ccccc1CSc1nnc(-c2cc(-c3cccs3)nc3cc(C)c(C)cc23)n1C(C)C | -3 | 5
COc1ccc(CCNC(=O)CCc2cc3c(n2-c2ccc(C(C)C)cc2)-c2ccccc2OC3)cc1 | 0 | 1
CC1C(=O)N(c2ccccc2-c2ccccc2)CCN1C(=O)c1cccc(Br)c1 (stereo not drawn) | -2 | 1
Nc1nc(SCC(=O)Nc2ccc(Cl)cc2)[nH]c(=O)c1NC(=O)c1ccccc1F | 3 | 2
CCOC(=O)N1CCN(c2cc(=O)n(C3CCCCC3)c(=O)[nH]2)CC1 | 2 | 10
COc1ccc(N(C)S(=O)(=O)c2ccc(OC)c(N3CCN(C(=O)c4cc(F)cc(C(F)(F)F)c4)CC3)c2)cc1 | 10 | 3
CC(C)(C)c1noc(CS(=O)(=O)c2cc3c(cc2Cl)OCCO3)n1 | 0 | 4
CC(=O)Nc1nc(C)c(S(N)(=O)=O)s1 | 6 | 4
COc1ccc(CCNS(=O)(=O)c2ccc(Cl)cc2C(F)(F)F)cc1OC | -1 | 13
COc1ccccc1C1c2cccn2CCCN1Cc1ccco1 (stereo not drawn) | 6 | 11
O=C1C2C3C=CC(C3)C2C(=O)N1CCC(=O)N1c2ccccc2Sc2ccccc21 (stereo not drawn) | -11 | -15
CN(Cc1cc(-c2ccncc2)no1)c1nccc(N2CCC(O)CC2)n1 | -2 | -4
CNCCCCc1cnc(C)c2[nH]c3ccccc3c12 | 0 | -1
CC(=O)Oc1ccc2c(C)c(Cc3ccccc3)c(=O)[nH]c2c1 | 3 | 4
CC(=O)Nc1ccc(-c2nccn2CCc2c[nH]c3ccccc23)cc1 | 10 | 5
O=C(c1ccc(F)c(F)c1)C1Sc2nnc(C3CC3)n2NC1c1ccc(Br)cc1 (stereo not drawn) | 15 | 9
Cc1cc(C(=O)Nc2ccc(Br)cc2Cl)no1 | -5 | -10
C=CCn1nc(C(=O)N2CCCCCC2)c2c1CCC(NC1Cc3ccccc3C1)C2 (stereo not drawn) | 17 | 5
Cc1cccnc1CN1CCN(Cc2nn(C)c3cccc(Cl)c23)CC1 | -4 | -3
CCCCC(CC)C(=O)N1CCc2cc(OC)c(OC)cc2C1c1cccc(Cl)c1 (stereo not drawn) | 7 | 0
CC(C)(O)C#Cc1ccc(C(=O)N2CCCC(C(=O)c3ccc4c5c(cccc35)CC4)C2)cc1 (stereo not drawn) | 13 | 4
Cn1ccc2ccc(CN3CCN(c4ncnc5ccccc45)CC3)cc21 | 5 | 6
COc1ccc(-c2cc(CC(=O)N3CCN(C(C)=O)CC3)no2)cc1 | 7 | 7
O=C(NCCc1c[nH]c2ccc(O)cc12)c1cccnc1Nc1cccc(C(F)(F)F)c1 | -7 | -13
Cn1nccc1C(=O)Nc1ccccc1C(=O)O | -19 | -23

(listing goes on)
SMILES | NPYLR7 ag | NPYLR7 ag max-min
COc1cc(OC)cc(C(=O)Nc2ccc(-c3nc4ccc(C)cc4o3)cc2)c1 | -3 | -11
CCCN1C(=O)C(c2c(CC)[nH]n(-c3ccc(Cl)cc3)c2=O)=C([n+]2cccc(C)c2)C1=O | -7 | -2
CCNC(=O)Cc1ccc(-c2cc(C)ccc2OC)cc1 | 6 | 3
O=[N+]([O-])c1cccc(CN2CCCn3cccc3C2c2ccccc2Cl)c1 (stereo not drawn) | 21 | 27
Cn1c(N)c(C(=O)CSc2nnc3n2CCCCC3)c(=O)n(C)c1=O | 0 | 3
CC(CCc1ccccc1)NC(=O)N1CCN(S(=O)(=O)c2ccc(Cl)cc2)CC1 (stereo not drawn) | 6 | 4
COc1ccc(CCN(C)C(=O)c2cncn2-c2ccc(-c3cc(C)cc(C)c3)cc2)cc1OC | 2 | -1
O=C(Cc1ccccc1)N(CCCn1ccnc1)c1nc2c(F)cc(F)cc2s1 | -13 | -17
CC(C)(C)c1ccc(OCC(=O)Nc2ccc3c4c(cccc24)C(=O)NC3=O)cc1 | 11 | 14
COCCN(Cc1csc(COc2cc(Cl)ccc2Cl)n1)C(=O)c1ccco1 | 14 | 9
COc1ccc(NC(=O)CN2CCCCC2c2nc(-c3cccc(F)c3)no2)cc1 (stereo not drawn) | -6 | -7
COc1ccccc1/C=C/C(=O)NCC(=O)N=Nc1c(O)[nH]c2ccc([N+](=O)[O-])cc12 | 0 | -4
CC1CN(C2CC2)CC1NC(=O)c1cccn1Cc1cccs1 (stereo not drawn) | 1 | -1
NC(=O)[C@H]1CCCN1C(=O)c1ccc(OCC(=O)N2CCCCC2)cc1 | 8 | 5
CSc1nc2nc(C)c(CC(=O)O)c(C)n2n1 | -2 | 0

An excerpt of these results, in markdown.
| compound | NPYLR7 ag | NPYLR7 ag max-min |
| --- | --- | --- |
| CN(Cc1cc(-c2ccncc2)no1)c1nccc(N2CCC(O)CC2)n1 | -2 | -4 |
| CNCCCCc1cnc(C)c2[nH]c3ccccc3c12 | 0 | -1 |
| CC(=O)Oc1ccc2c(C)c(Cc3ccccc3)c(=O)[nH]c2c1 | 3 | 4 |
| CC(=O)Nc1ccc(-c2nccn2CCc2c[nH]c3ccccc23)cc1 | 10 | 5 |
| O=C(c1ccc(F)c(F)c1)C1Sc2nnc(C3CC3)n2NC1c1ccc(Br)cc1 (stereo not drawn) | 15 | 9 |
| Cc1cc(C(=O)Nc2ccc(Br)cc2Cl)no1 | -5 | -10 |
| C=CCn1nc(C(=O)N2CCCCCC2)c2c1CCC(NC1Cc3ccccc3C1)C2 (stereo not drawn) | 17 | 5 |
| Cc1cccnc1CN1CCN(Cc2nn(C)c3cccc(Cl)c23)CC1 | -4 | -3 |
| CCCCC(CC)C(=O)N1CCc2cc(OC)c(OC)cc2C1c1cccc(Cl)c1 (stereo not drawn) | 7 | 0 |
| CC(C)(O)C#Cc1ccc(C(=O)N2CCCC(C(=O)c3ccc4c5c(cccc35)CC4)C2)cc1 (stereo not drawn) | 13 | 4 |
| Cn1ccc2ccc(CN3CCN(c4ncnc5ccccc45)CC3)cc21 | 5 | 6 |
| COc1ccc(-c2cc(CC(=O)N3CCN(C(C)=O)CC3)no2)cc1 | 7 | 7 |
| O=C(NCCc1c[nH]c2ccc(O)cc12)c1cccnc1Nc1cccc(C(F)(F)F)c1 | -7 | -13 |
| Cn1nccc1C(=O)Nc1ccccc1C(=O)O | -19 | -23 |
| COc1cc(OC)cc(C(=O)Nc2ccc(-c3nc4ccc(C)cc4o3)cc2)c1 | -3 | -11 |
| CCCN1C(=O)C(c2c(CC)[nH]n(-c3ccc(Cl)cc3)c2=O)=C([n+]2cccc(C)c2)C1=O | -7 | -2 |
| CCNC(=O)Cc1ccc(-c2cc(C)ccc2OC)cc1 | 6 | 3 |
| O=[N+]([O-])c1cccc(CN2CCCn3cccc3C2c2ccccc2Cl)c1 (stereo not drawn) | 21 | 27 |
| Cn1c(N)c(C(=O)CSc2nnc3n2CCCCC3)c(=O)n(C)c1=O | 0 | 3 |
| CC(CCc1ccccc1)NC(=O)N1CCN(S(=O)(=O)c2ccc(Cl)cc2)CC1 (stereo not drawn) | 6 | 4 |
| COc1ccc(CCN(C)C(=O)c2cncn2-c2ccc(-c3cc(C)cc(C)c3)cc2)cc1OC | 2 | -1 |
| O=C(Cc1ccccc1)N(CCCn1ccnc1)c1nc2c(F)cc(F)cc2s1 | -13 | -17 |
| CC(C)(C)c1ccc(OCC(=O)Nc2ccc3c4c(cccc24)C(=O)NC3=O)cc1 | 11 | 14 |
| COCCN(Cc1csc(COc2cc(Cl)ccc2Cl)n1)C(=O)c1ccco1 | 14 | 9 |
| COc1ccc(NC(=O)CN2CCCCC2c2nc(-c3cccc(F)c3)no2)cc1 (stereo not drawn) | -6 | -7 |
| COc1ccccc1/C=C/C(=O)NCC(=O)N=Nc1c(O)[nH]c2ccc([N+](=O)[O-])cc12 | 0 | -4 |

Some of the compounds tested. The share of hits here may be higher or lower than overall.
